NPYLR7 ag: agonists of mosquito NPYLR7 receptor, primary screen, cell-based, Aedes aegypti, calcium fluorescence, mosquito biting behavior; AID 1259423, 2018; activation, % at 10 µM; 270,000 compounds, 0.15% hits; HEK293T NPYLR7/Galpha15, GCaMP6s calcium fluorescence; Aedes aegypti neuropeptide Y-like receptor 7 (NPYLR7); in the data active = activation above about 40%;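 note: 0% = vehicle and 100% = reference agonist at the receptor; some compounds past the cut are filed as inactive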
NPYLR7 ag max-min: also measured in NPYLR7 ag; calls as there; activation, %; measured here: Max-Min RFU normalised activation; some inactives read as strong as hits;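 span of the calcium signal over five minutes; 0% = vehicle and 100% = native peptide agonist; compound fluorescence can raise it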
The depositor's hits bear a star; & = joins results of further samples. These rows are one share of the data; count on the stated rates, not on these rows.

SMILES	NPYLR7 ag	NPYLR7 ag max-min
O=C(Nc1ccc(C(=O)N2CCCC2)cc1)c1ccc(S(=O)(=O)N2CCOCC2)cc1	1	3
CC1(C)CC2CC(C)(CN2C(=O)c2cc3n(n2)CCN(Cc2ccccc2)C3=O)C1 (stereo not given)	16	14
COCCCN(CC(=O)N1CCc2sccc2C1c1ccccc1C)C(=O)COc1ccc(Cl)cc1 (stereo not given)	19	27
O=C(Nc1ccc(C(F)(F)F)cc1Cl)c1cc([N+](=O)[O-])[nH]n1	1	9
O=C(NCc1ccc2c(c1)OCO2)c1cccnc1N1CCN(C(=O)c2ccc(-c3ccc(F)c(F)c3)s2)CC1	2	0
Cc1ccc(-n2c(C(C)N(CCc3ccccc3)C(=O)COc3ccc(Cl)cc3)nc3cc(Cl)ccc3c2=O)cc1 (stereo not given)	-1	-8
CCCCc1nc(N2CCN(C(=O)C3CCC3)CC2)c2c(-c3ccc4ccccc4c3)noc2n1	13	3
Nc1ncnc2c1nc(Br)n2C1OC2COP(=O)(O)O[C@@H]2C1O (stereo not given in full)	7	-8
CCOc1ccc(-n2nnnc2CNC(=O)c2cc(OCC)c(OCC)c(OCC)c2)cc1	0	0
O=C(c1ccc2nc(C3CC3)oc2c1)N1CCCCC1CCc1ccccn1 (stereo not given)	2	1
CC(C)(C)n1cc(C#N)c(NC(=O)NCc2cccc(F)c2)n1	-1&-24	1&-24
Cc1ccccc1C(NS(=O)(=O)NCc1ccccc1)c1ccncc1 (stereo not given)	-6	-6
CC1CN(C(c2ccc(F)cc2)C2Sc3nc(-c4ccco4)nn3C2=O)CC(C)O1 (stereo not given)	0	-1
COc1cccc(C(=O)Nn2cnc3c(cnn3C(C)(C)C)c2=O)c1OC	2	-1
Cn1c(O)c(N=NC(=O)c2ccccc2)c2ccccc21	-13	-14
OCC1(CCOc2ccccc2)CCN(Cc2cc3ccccc3o2)CC1	15&-2	4&-4
O=C(CSc1nnc(CNC(=O)c2cccs2)o1)NCC1CCCO1 (stereo not given)	-3	-3
COc1cc2c(cc1OC)CN(C1CCCN(Cc3cccc4c3OCO4)C1)CC2 (stereo not given)	-6	-8
CCCCN(C)S(=O)(=O)NC1CCSc2ccc(Cl)cc21 (stereo not given)	1	0
CC(C)(C)Nc1nc(NN)nc(NC(C)(C)C)n1	1	-11

Another view of seven compounds above:
Second line of a record: NPYLR7 ag	NPYLR7 ag max-min
Cc1ccc(-n2c(C(C)N(CCc3ccccc3)C(=O)COc3ccc(Cl)cc3)nc3cc(Cl)ccc3c2=O)cc1 (stereo not given)
  -1	-8
CCCCc1nc(N2CCN(C(=O)C3CCC3)CC2)c2c(-c3ccc4ccccc4c3)noc2n1
  13	3
Nc1ncnc2c1nc(Br)n2C1OC2COP(=O)(O)O[C@@H]2C1O (stereo not given in full)
  7	-8
CCOc1ccc(-n2nnnc2CNC(=O)c2cc(OCC)c(OCC)c(OCC)c2)cc1
  0	0
O=C(c1ccc2nc(C3CC3)oc2c1)N1CCCCC1CCc1ccccn1 (stereo not given)
  2	1
CC(C)(C)n1cc(C#N)c(NC(=O)NCc2cccc(F)c2)n1
  -1&-24	1&-24
Cc1ccccc1C(NS(=O)(=O)NCc1ccccc1)c1ccncc1 (stereo not given)
  -6	-6

Going on with the list:
SMILES	NPYLR7 ag	NPYLR7 ag max-min
CCOC(=O)C1(C)CCN1C(=O)c1cccnc1Oc1ccccc1 (stereo not given)	1	-4
CC1=NN(C)c2nc3c(c(=O)n(Cc4ccccc4Cl)c(=O)n3C)n2C1	-4	-8
CCCN1C(=O)c2ccccc2N(CC(=O)NCCCn2ccnc2)C(=O)C1Cc1ccccc1 (stereo not given)	1	20
O=c1c2cnc3nc4ccccc4n3c2ccn1-c1cccc(Cl)c1	0	-2
Cc1cc(CN2CCN(c3cccc(C(C)C)n3)CC2)sc1C	6	5
CC(C)C1CCC(C(=O)N[C@H](Cc2ccccc2)C(=O)O)CC1 (stereo not given in full)	-10	-12
O=C(NCc1ccc(N2CCOCC2)c(F)c1)Nc1ccccc1	-1	-1
CCOCc1ccccc1CNC(=O)C1CCCN1S(=O)(=O)c1cccs1 (stereo not given)	7	6
CCCCN(CC(=O)Nc1cc(-c2ccccc2)nn1-c1ccc(F)cc1)C(=O)Nc1ccc(Br)cc1	9	19
Cc1ccc(S(=O)(=O)Cc2ccc(C(=O)O)cc2)cc1	-21	-23
CC(NCCCN1CCCC1)C(=O)NC1CCCC1 (stereo not given)	9	5
Cc1ccccc1C(=O)N[C@@H]1CCCCC1NC(=O)C1CCCN(C(=O)c2ccco2)C1 (stereo not given in full)	21	16
COc1cccc(Cc2nc3c(c(N4CCOCC4)n2)CN(C(=O)Nc2cccc(OC)c2)CC3)c1	3	-1
CN(C)CC1(O)CCCN(C(=O)c2cccc(N3CCNC3=O)c2)CC1 (stereo not given)	-2	-4
Cc1nnc(NC(=O)CC2CC3CCC2C3)s1 (stereo not given)	9	15
Cc1ccc(-c2cc(C(F)F)nc(S(C)(=O)=O)n2)cc1	2	-1
COc1ccc(CCn2c(-c3ccc(F)cc3C(F)(F)F)nc3cc(Cl)ccc3c2=O)cc1	27	15
Cc1ccc2nc(N(CCCN3CCOCC3)C(=O)c3cc(C)on3)sc2c1	13	10
COC(=O)C(=O)N1CCC(c2nc(-c3ccc(Cl)cc3)no2)CC1	0	-2
COC(=O)c1sc2nc(C)[nH]c(=O)c2c1CC(=O)O	0	-1

Arranged by molar mass (smallest number first): 4 of the compounds above.
SMILES	NPYLR7 ag	NPYLR7 ag max-min
CC1=NN(C)c2nc3c(c(=O)n(Cc4ccccc4Cl)c(=O)n3C)n2C1	-4	-8
Cc1ccc2nc(N(CCCN3CCOCC3)C(=O)c3cc(C)on3)sc2c1	13	10
CCOCc1ccccc1CNC(=O)C1CCCN1S(=O)(=O)c1cccs1 (stereo not given)	7	6
CCCCN(CC(=O)Nc1cc(-c2ccccc2)nn1-c1ccc(F)cc1)C(=O)Nc1ccc(Br)cc1	9	19

Later entries:
SMILES	NPYLR7 ag	NPYLR7 ag max-min
COc1cc(OC)cc(C2SCCN2C(=O)Nc2ccc(F)c(F)c2)c1 (stereo not given)	17	23
Cc1cc(-n2nc(C)cc2C)nc(NS(=O)(=O)c2ccccc2Cl)n1	0	-1
CC1(C)NC(=O)N(Cc2cccc(F)c2)C1=O	-9	-9
O=C(Cc1ccc([N+](=O)[O-])cc1)NCCOc1cccc(C(F)(F)F)c1	-8	-7
CC(C)(Oc1cccc2ccccc12)C(=O)N1CCOC(C(F)(F)F)C1 (stereo not given)	4	2
Cc1cc(CC(O)(c2ccccc2)c2ccccc2)on1	5	1
Cc1ccc(OCc2nc(C(=O)N3CCc4ccccc43)cs2)cc1	-6	-6
CCOc1ccc(C2CCCN2Cn2nc(C(=O)NC)c3ccccc3c2=O)cc1 (stereo not given)	-2&5	1&4
COc1ccc(Oc2cc(C)nc(SCc3ccccc3F)n2)cc1	-1	3
Cc1nc(-c2ccc(CNC(=O)/C=C/c3ccccc3Cl)o2)cs1	3	9
CCSc1nc2c([nH]c3ccccc32)c(=O)n1-c1cccc(OC)c1	1	36
CCCCc1ccc(-c2csc(NC(=O)C3(C)CCOCC3)n2)cc1	11	11
C=CCOCC(O)CN(CCN1CCOCC1)Cc1ccsc1 (stereo not given)	-1	7
Brc1ccccc1-c1nn[nH]n1	2	4
O=C(Nc1ccc(F)cc1F)C(C1CCCC1)N1CCN(C(=O)CCc2ccccc2)CC1 (stereo not given)	11	8
COc1cc(/C=C2/CCc3ccccc3C2=O)ccc1OCC#N	-1	1
CCn1cnnc1CNC(=O)C1(c2cccc(C)c2)CCCC1	5	1
COC(=O)C1CC(O)C(N2CCN(C3CCCC3)CC2)C1 (stereo not given)	1	-5
COc1c(C)cc(C(=O)C2CCCN(C(=O)c3ccc4ccccc4n3)C2)cc1C (stereo not given)	-3&1	-9&-1
Cc1ccc(-n2nnc3c(N4CCN(S(C)(=O)=O)CC4)ncnc32)cc1	-16	-26
S=c1[nH]nc(-c2c[nH]c3ccccc23)n1Cc1ccco1	2	-3
O=C(NC1CCN(c2ncccn2)CC1)c1cc2c(cc1O)CCCC2	2	0
COc1ccc2[nH]c(C(=O)N3CCCN(C)C4(CCN(C)CC4)C3)cc2c1	4	2
COc1cccc(C(=O)Nc2cccc(-c3nc4ccccc4o3)c2C)c1	-6	-10
CCCCCC(C)N (stereo not given)	-14	-19
Cc1cc(=O)n(CC(=O)NCCN(C)S(C)(=O)=O)c2ccccc12	-4	-3
CCOc1cc(C=NNC(=O)c2cc(-c3ccco3)[nH]n2)ccc1O	-1	3
Cc1ccnc(Nc2ccc(N3CCN(S(C)(=O)=O)CC3)nn2)c1	4	3
CC(NC(=O)CN1CCCCC1)C1CC2CCC1C2 (stereo not given)	-5	-8
COCCN(Cc1cccn1Cc1ccccc1)C(=O)CN(CCC(C)C)C(=O)c1ccc2c(c1)OCO2	0	1
O=C(CON=C1c2ccccc2-c2ccccc21)NC12CC3CC(CC(C3)C1)C2	3	0
COc1ccc(-c2csc(=Nc3ccccc3)n2N2CCOCC2)cc1	0	-1
COc1ccc(CNc2nc(SC)n[nH]2)cc1OC	-2	-3
C=CCn1c(-c2ccc(Cl)cc2Cl)csc1=Nc1cccc(O)c1	0&-5	-1&-7
COc1cc(C(=O)N2CCC(c3cc(C(C)C)n[nH]3)CC2)ccc1F	2	4
O=C1CCN(CC(O)CC(F)(F)F)c2ccc(F)cc2CN1CC1CC1 (stereo not given)	-2	9
COc1ccccc1-c1cc(C(=O)N(CCC#N)Cc2cccnc2)nc2c(-c3ccccc3)c(C)nn12	4	19
CCCCCOc1ccc(C(=O)N[C@@H]2CCCc3ccccc32)cc1OCCCCC	-5	-8
CCc1sc(C(=O)NNS(=O)(=O)c2ccc(S(=O)(=O)N(C)C)cc2)cc1C	1	8
Cc1ccc(CN(CCc2ccccc2)C(=O)CN(Cc2ccco2)C(=O)NC(C)(C)C)o1	3	19

Filtered by structure, those above containing a nitro group on carbon
SMILES	NPYLR7 ag	NPYLR7 ag max-min
O=C(Nc1ccc(C(F)(F)F)cc1Cl)c1cc([N+](=O)[O-])[nH]n1	1	9
O=C(Cc1ccc([N+](=O)[O-])cc1)NCCOc1cccc(C(F)(F)F)c1	-8	-7

Carrying on.
SMILES	NPYLR7 ag	NPYLR7 ag max-min
CCN(CC(=O)N1CCOC(C)C1)Cc1ccc(OC)cc1 (stereo not given)	8	6
COC(=O)C12C3CC4C5C(C(=NNC(N)=S)C41)C2C53 (stereo not given)	6	4
O=C(c1cccnc1)N1N=C(C2CC2)CC1(O)C(F)(F)F (stereo not given)	7	5
CN(Cc1ccccc1)C(=O)c1ccc2sc([C@@H]3O[C@H](CO)[C@H](O)[C@H](O)[C@H]3O)nc2c1	1	-1
Cc1ccc(/C=C/S(=O)(=O)N2CCC(=O)Nc3ccccc32)cc1	8&0	5&26
Cn1c(C(=O)N2CCC(C(N)=O)CC2)cc2c(=O)n3ccccc3nc21	8&-3	4&-4
Cc1cccc(N2CCNC(C)C2=O)c1C (stereo not given)	-1	3
COc1ccc(N2CCN(c3cncc(-c4cccc(N(C)C)c4)n3)CC2)cc1OC	-8	-11
Cc1nc2cc(-c3cccc4ccnn34)ccc2s1	6	2
O=C(c1cccnn1)N(Cc1cccc(Cl)c1)C1CC1	2	6
CCN1C(=O)SC(Nc2ccc(C)cc2)C1=O (stereo not given)	11	9
CCn1nc(C)c(NC(=O)CN2CCc3[nH]nc(C4CCC4)c3C2)c1C	-8	-10

Screening data deposited in PubChem BioAssay by Fisher Drug Discovery Resource Center.
